PINK1 modulator: A Quantitative High throughput Screen to Identify Chemical Modulators of PINK1 Expression | PINK1 immunofluorescence, high-content cytometry, 24 h | Potency, µM (top dose mostly 76.6 µM), inactives show at the highest dose activation (PINK1 increase), usual class: activators | 410,000 compounds, 0.2% hits | AID 624263, 2012; active = well fitted activation curve with a large enough effect; inconclusive = small, poorly fitted or top-dose-only effect; inactive = flat fitted curve, though single readings scatter; cell line not stated here;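 note: potency is the fitted concentration of half-maximal effect; % of control where 0% means no effect; nearly all actives have a fitted effect of over 65% in size; a mitochondrial uncoupler was the plate control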
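PINK1 protein, normally rapidly degraded, was detected by immunofluorescence after 24 hour compound treatment of a stable cell line. Titration data (5 concentrations) came from laser-scanning cytometry, with CCCP-treated wells as controls.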
gsp ag: qHTS for Agonist of gsp, the Etiologic Mutation Responsible for Fibrous Dysplasia/McCune-Albright Syndrome: qHTS. 340,000 compounds, 0.13% hits. gsp mutant cells, cAMP HTRF, 30 min; control for the full effect not named in the record. Potency, µM (top dose mostly 76.9 µM), inactives show at the top dose activation (cAMP increase), usual class: activators; active = well fitted activation curve with a large enough effect; inconclusive = small, poorly fitted or top-dose-only effect, or another doubt; inactive = no such curve, though single readings can be large or run the other way; cell line not stated here;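 note: phosphodiesterase inhibitor Ro 20-1724 added with compounds to block cAMP breakdown; potency is the fitted concentration of half-maximal effect; nearly all actives have a fitted effect of over 60% in size; about a fifth of the inactives were tested at one dose only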
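Cells in DMEM/10% FBS with G418 were pretreated with compounds in DMSO plus […] (300 uM stock) for 30 min at 37C. cAMP was measured by HTRF (cAMP-d2 plus anti-cAMP antibody-K) after 30 min at room temperature.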
Sfp PPTase inh: qHTS Assay for Inhibitors of Bacillus subtilis Sfp phosphopantetheinyl transferase (PPTase). 4'-phosphopantetheinyl transferase ffp (Bacillus subtilis), Q9F4F7. Biochemical Sfp PPTase activity, qHTS. Potency, µM, for the others: max response, negative = inhibition, most hits filed as inhibitors. 310,000 compounds, 3.5% hits; active = well fitted inhibition curve with a large enough effect; inconclusive = small, poorly fitted or top-dose-only effect, or another doubt; inactive = no such curve, though single readings can be large or run the other way;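 note: the enzyme is Sfp with the accession as filed and its product quenches rhodamine fluorescence; potency is the fitted concentration of half-maximal effect; 0% = enzyme reaction without inhibitor and -100% = no enzyme wells; top concentration of the series not given in the record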
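After 15 min at room temperature with compound, 15 nM Sfp received 5 uM rhodamine-CoA plus 12.5 uM BHQ-2-ybbR (50 mM Hepes pH 7.6, 10 mM MgCl2). Rate came from the fluorescence difference over 30 min, ex 525/em 598 nm.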
gsp antagonist: qHTS for Antagonists of gsp, the Etiologic Mutation Responsible for Fibrous Dysplasia/McCune-Albright Syndrome: qHTS; gsp-mutant cells, cAMP HTRF, 30 min; control for the full effect not named in the record; Potency, µM (top dose mostly 76.9 µM), for the others: at the highest dose activity change, negative = inhibition, actives largely listed as inhibitors; 340,000 compounds, 0.4% hits; AID 624288, 2012; active = falling curve of any shape with a large fitted effect; inconclusive = falling curve, mostly with a smaller effect; inactive = flat or rising curve; cell line not stated here;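 note: intracellular cAMP measured with PDE inhibitor Ro 20-1724 present during compound exposure; potency is the fitted concentration of half-maximal effect; % is set by controls: 0 for no effect and ±100 for the full control effect; nearly all actives have a fitted effect of over 65% in size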
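HTRF cAMP measurement after 30 min RT detection following 30 min, 37C compound treatment alongside […] (added as 300 uM solution) in G418-selected cells seeded at 2000/well and grown 16–24 h.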
ClpP mod: qHTS Assay for Activators of ClpP | Potency, µM (titrated, usually from 57.5 µM), inactives show at the top dose activity change, negative = active | purified B. subtilis ClpP, FRET peptide cleavage, 20 min | AID 651965, 2013 | 340,000 compounds, 1.9% hits; active = well fitted falling curve with a large enough effect; inconclusive = small, poorly fitted or top-dose-only effect; inactive = no such curve, though single readings can be large or run the other way; note: potency is the fitted concentration of half-maximal effect; the source files actives as falling curves though it sought activators and does not explain the sign; nearly all actives have a fitted effect of over 65% in size; many hits overshoot -100%
Target sequence (P80244 whole entry, looked up): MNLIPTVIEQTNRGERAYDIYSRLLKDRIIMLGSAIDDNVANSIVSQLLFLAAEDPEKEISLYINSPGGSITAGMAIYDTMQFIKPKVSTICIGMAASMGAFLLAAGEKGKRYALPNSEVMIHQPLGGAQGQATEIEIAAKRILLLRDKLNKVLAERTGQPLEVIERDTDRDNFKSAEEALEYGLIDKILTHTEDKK
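Buffer: 100 mM Tris/HCl pH8, 100 mM KCl, 0.05% low protease BSA, 2.5% glycerol, 0.01% Tween-20. ClpP 10 microg/mL final; 20 min RT; delta FRET normalized to ADEP and DMSO controls.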
D2 agonist: Beta-Arrestin HTS for Positive Allosteric Modulators of the Human D2 Dopamine Receptor: Agonists; D(2) dopamine receptor (Homo sapiens), P14416; DiscoveRx PathHunter D2 beta-arrestin, luminescence, 90 min; 100% = 57 uM dopamine signal; activation, % (test concentration not listed); 360,000 compounds, 0.084% hits; in the data active = activation above about 40%; inconclusive = about 15% to 40%; inactive = below about 15%; note: compound concentration not given in the record; the text of the record calls up to 30% inactive
Target sequence (P14416 whole entry, looked up): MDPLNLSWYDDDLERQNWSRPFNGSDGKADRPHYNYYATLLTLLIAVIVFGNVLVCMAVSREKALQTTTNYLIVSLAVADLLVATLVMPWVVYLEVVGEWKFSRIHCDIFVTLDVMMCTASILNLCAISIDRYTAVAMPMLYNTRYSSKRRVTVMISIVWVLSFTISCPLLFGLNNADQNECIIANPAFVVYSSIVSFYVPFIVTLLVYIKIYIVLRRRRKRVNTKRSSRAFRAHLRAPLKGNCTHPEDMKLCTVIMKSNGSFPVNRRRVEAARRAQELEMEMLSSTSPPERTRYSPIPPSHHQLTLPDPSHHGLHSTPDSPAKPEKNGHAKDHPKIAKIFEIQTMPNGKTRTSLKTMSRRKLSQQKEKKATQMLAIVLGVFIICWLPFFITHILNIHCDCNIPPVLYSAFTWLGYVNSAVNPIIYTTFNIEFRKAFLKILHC
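Agonist mode: compounds alone added to overnight-plated D2 PathHunter cells for 90 min at 37 C, with 57 uM final dopamine (EC100) defining full response. Beta-arrestin recruitment detected by chemiluminescent reagent, read after 1 h at ambient temperature.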
Menin MLL FP FL: qHTS Assay for Inhibitors Targeting the Menin-MLL Interaction in MLL Related Leukemias: Competition With Fluorescein Labeled MLL-derived Peptide | 290,000 tested, under 10 active | Fluorescence polarization, fluorescein-MLL peptide displacement from menin | FP activity change, % at 61.4 µM | AID 1766, 2009; inconclusive = falling polarisation curve, or a change in total fluorescence; inactive = total fluorescence flat and polarisation flat or rising; no compound was filed as active; the % refers to the polarisation; negative = inhibition;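 note: % of control where 0% means no effect; inhibitors lower the polarisation; unlabelled MLL peptide was the positive control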
Starred values were filed as active, the others as inactive; ? = inconclusive; · = not tested or not shown; & = joins results of further samples; [ ] = remark or other dose.

mol,gsp antagonist,ClpP mod,Menin MLL FP FL,gsp ag,Sfp PPTase inh,D2 agonist,PINK1 modulator
COCCNC(=O)CSc1nc2ccccc2c(=O)n1CCC(=O)N1CCN(c2ccccc2)CC1,-20.2%,-0.9%,-8.3,9.4%[15.4 µM],-1.4%,-3.8,-0.6%
CC(C)Cn1c(=O)c2ccccc2n2c(CCC(=O)NCc3ccccn3)nnc12,?,-14.7%,0.2,8.2%,15.4%,-2.6,1.0%
NC(=O)c1ccc[n+](Cc2ccccc2)c1,15.4%,2.3%,6.2,-30.5%,0.9%,0.1,-0.3%
Clc1ccccc1COc1ccc(/C=N/n2cnnc2)cc1,3.5%,-5.9%,10.4,5.5%[15.4 µM],-3.3%,1.8,-1.0%
COc1cccc(NC(=O)Cn2c(=O)oc3ccccc32)c1,-4.4%,1.2%,6.9,6.0%,13.2%,-1.9,-3.1%[38.3 µM]
COc1ccc(/C(C)=N/NC(=O)c2ccc(N(C)C)cc2)cc1,5.1%,232.7%,-0.5,-13.0%,-0.3%,-7.6,3.6%
NC(=O)CSc1nnc(-c2cccc(S(=O)(=O)N3CCCCC3)c2)o1,4.2%,-2.2%,-0.4,20.0%,25.8%,-1.7,-0.3%
CC1(C)CC(CC(=O)O)(c2ccccc2)CCO1 (centres undefined),2.8%,-2.5%,0.4,-6.4%,23.6%,1.5,-1.7%
O=C(NCc1ccccc1F)C1CCN(C(=O)Nc2ccc(F)cc2)CC1,14.0%,·,3.7,-5.7%[15.4 µM],5.6%,-0.3,1.3%
CCNC(=O)/C(C#N)=C/c1c(N2CCN(Cc3ccc4c(c3)OCO4)CC2)nc2c(C)cccn2c1=O,-8.4%,1.9%,1.4,-1.0%,3.3%,-1.3,1.7%
CC1(C)CC(=O)C=C(Nc2ccccc2F)C1,1.7%,-0.4%,0.6,3.4%,-9.0%,-4.1,-0.2%
Fc1c(F)c(F)c(/C=N/NC(=S)Nc2cccnc2)c(F)c1F,-16.4%,·,0.9,-7.5%[15.4 µM],2.1%,-3.3,-2.1%
O=C(NCc1cccnc1)c1ccc2c(c1)N(Cc1ccccc1)CCS2,?,·,0.8,15.4%[15.4 µM],50.1µM*,-1.7,-0.2%
CCO[C@@H]1OC(C(N)=O)=C[C@H](c2ccc(Br)cc2)[C@H]1CCCO,-6.1%,2.1%,-2.4,·,-1.3%,-3.3,2.6%
O=S(=O)(Nc1nc2ccccc2nc1NCC1CCCO1)c1ccc(F)cc1 (centres undefined),-20.3%,·,-0.1,6.1%,31.6%[activator],-1.9,0.5%
COc1ccccc1CNC(=O)C(CCSC)NS(=O)(=O)c1ccc2c(c1)oc(=O)n2C (centres undefined),4.3%,-2.7%,3.5,-26.5%,16.2%,-2.2,-2.5%
O=C(O)COc1ccccc1/C=N/NC(=O)Cc1csc(Nc2cccc(C(F)(F)F)c2)n1,-0.1%,·,-3.0,6.2%[15.4 µM],2.9%,-2.0,2.9%
COc1ccccc1NC(=O)COc1ccccc1C(=O)Nc1ccccc1,?,-1.8%,1.3,-1.8%[15.4 µM],10.4%,-1.9,3.8%&0.1%
O=C(CCCN1CCN(c2ccccc2)CC1)c1ccc(F)cc1,·,1.4%,·,27.3%,·,0.3,0.4%
O=[N+]([O-])c1cccnc1NCCc1c[nH]c2ccccc12,3.5%,1.3%,0.5,-0.5%,13.6%,2.3,2.8%
Cc1cc(C)nc(SCC(=O)c2ccc3c(c2)OCCO3)n1,-10.9%,0.4%,5.2,4.2%,10.4%,0.7,·
CC(C)c1ccccc1OCC(=O)NCC(c1cccs1)N1CCOCC1 (centres undefined),-24.8%,0.6%,3.7,2.7%,-7.3%,0.5,2.2%
COC(=O)c1cc(NC(=O)c2cc(C)oc2C)cc(C(=O)OC)c1,-5.1%,-5.4%,4.4,-42.9%,11.0%,-1.4,0.7%
O=C(NCCCN1CCN(CCCNC(=O)c2cccc(Cl)c2)CC1)c1cccc(Cl)c1,16.1%,-2.3%,5.6,-9.1%,-2.5%,-2.1,2.7%
COCCCNC(CC(=O)Nc1cc(C)cc(C)c1)C(=O)O (centres undefined),-4.9%,-0.6%,·,6.2%,·,-1.0,0.4%
O=C1CC2(CCN(C(=O)COc3ccccc3)CC2)Oc2ccccc21,-3.3%,·,·,8.6%[15.4 µM],·,-3.1,-3.1%
CC(=O)Nc1ccc(S(=O)(=O)NC2CCCCCC2)cc1,4.7%,·,-2.5,?,3.1%,-1.3,-1.9%
COc1ccc(C(C)=O)cc1CC1(C)C(=O)Nc2ccc(-c3ccccc3OC)cc21 (centres undefined),·,0.7%,·,·,·,-4.0,-0.3%
COc1ccc(CC(NC(C)=O)C(=O)NC2CCN(c3nc(C)cc(C)c3C#N)CC2)c(OC)c1 (centres undefined),-3.7%,12.6µM*,0.3,-1.7%,-8.0%,-5.2,0.6%
COc1cc(OC)cc(C(=O)NNC(=S)NC2CC2)c1,7.9%,-0.3%,-4.1,-0.5%[15.4 µM],25.5%,-8.3,-2.4%
CCC1(c2ccccc2)SC(N)=NC1=O (centres undefined),-3.5%,-10.6%,·,-82.0%[inhibitor],·,-2.2,-3.4%
CCc1ccc(NC(=O)COC(=O)CCCC2=NS(=O)(=O)c3ccccc3N2)cc1,6.7%,-1.8%,-4.2,11.5%,8.3%,2.3,3.1%&1.3%
COc1ccc(N=Cc2c[nH][nH]c2=O)cc1,6.8%,0.9%,1.1,-55.9%[inhibitor],-4.4%,-2.1,-0.7%
COc1ccc2[nH]c(C(=O)NCc3ccccc3)cc2c1,5.5%,·,1.3,22.1%,-8.9%,-3.7,1.9%
COCCn1nnnc1C(c1ccc(OC)cc1OC)N1CCN(c2ccccc2)CC1 (centres undefined),3.8%,-0.5%,-3.1,-32.0%[inhibitor],-12.4%,-1.8,0.0%
CCCNC(=O)COC(=O)c1ccccc1C(=O)N(C)C1CCCCC1,4.6%,-0.6%,3.5,26.7%,18.3%,0.5,-0.1%
O=C(CSC1=NS(=O)(=O)c2cc(F)ccc2N1)NCc1ccccc1Cl,1.2%,0.4%,·,10.9%[15.4 µM],·,-0.2,0.4%
O=c1c2ccccc2oc2cc(OCc3cccc(F)c3)cc(O)c12,1.6%,-2.0%,1.1,-1.7%[15.4 µM],-0.3%,-1.8,-0.8%
O=C(N/N=C/c1ccccc1OC(=O)N1CCOCC1)c1cccs1,-1.5%,·,-0.6,0.2%[15.4 µM],15.3%,-1.1,0.1%
CC1(C(=O)NS(=O)(=O)c2ccccc2Cl)CCN1C(=O)C1(c2ccc(Cl)cc2)CCC1 (centres undefined),·,-0.8%,·,·,·,-3.2,2.5%
NC(=O)C1CCCN(C(=O)c2ccc(NC(=O)c3cccs3)cc2)C1 (centres undefined),10.2%,-0.4%,·,-16.3%,·,0.3,0.8%
Cc1c(OCC(=O)NCCCN2CCOCC2)ccc2c1oc(=O)c1ccccc12,7.4%,3.9%,·,15.0%,10.1%,-4.1,-1.1%
O=[N+]([O-])c1ccc(N2CCCCC2)c(Cl)c1N1CCCCC1,-11.2%,0.3%,1.7,?,-1.9%,1.3,10.6%[38.3 µM]
COc1ccc(OC)c(NC(=O)COC(=O)CCCN2C(=O)c3ccccc3C2=O)c1,-26.7%,0.2%,·,17.6%[15.4 µM],25.2%,-4.9,0.9%
CCOC(=O)/C=C/C(=O)Nc1ccc(Oc2ccccc2)cc1,-1.0%,-0.8%,1.7,-15.3%[15.4 µM],18.0%,-4.1,-0.9%
Cc1cc(C)c(S(=O)(=O)NCC(=O)NCc2ccccn2)c(C)c1,11.3%,-1.6%,-0.9,7.4%[15.4 µM],-24.2%,0.0,2.0%
N#Cc1ccc(-c2nc3ccc(Br)cn3c2Cc2ccsc2)cc1,·,-7.9%,·,·,·,-4.8,0.6%
CC(C)C(=O)Nc1cccc(C(=O)Nc2nnc(C(C)(C)C)s2)c1,-1.3%,0.1%,-0.3,-42.6%[inhibitor],0.8%,1.2,-0.2%
Cc1nc2ncnn2c(C)c1Cc1cccc(C(F)(F)F)c1,0.6%,-4.2%,-0.6,-6.4%[15.4 µM],7.1%,0.3,0.6%
COc1ccc(NC(=S)N2CCC(c3nc4ccccc4o3)CC2)c(OC)c1,-3.7%,0.0%,5.5,-44.0%[inhibitor],1.8%,4.9,-0.9%
CC(Oc1cccc(Cl)c1)C(=O)Nc1cc(S(=O)(=O)N2CCCCC2)ccc1N1CCOCC1 (centres undefined),-7.2%,-3.4%,·,-1.0%,·,-2.2,-2.3%
COc1ccc(CN2CCNC(=O)C2CC(=O)N(C)C2CCOCC2)c(F)c1 (centres undefined),5.4%,-2.5%,·,-29.7%,4.9%,-1.0,-3.1%
Cc1ccc(NC(=O)Cc2ccc(-c3ccccc3)cc2)nc1,-9.5%,-13.0%,-0.4,4.3%,7.6%,-0.7,1.0%
COc1ccc2oc(C(F)(F)C(F)(F)F)cc(=O)c2c1,-1.4%,-1.1%,-1.1,-6.9%[15.4 µM],23.8%,0.9,-1.2%
O=C(CCc1nnc2ccc(NCc3ccccc3Cl)nn12)NC1CCCC1,-4.6%,-3.3%,6.4,-48.5%[inhibitor],13.3%,-3.1,0.4%
C=CC[C@H](CC(=O)OC(C)(C)C)C(=O)OC[C@H]1CCCN1C(=O)[C@H](CC=C)CC(=O)N(CCO)Cc1ccccc1,-12.1%,1.7%,·,-21.2%,·,-2.3,-1.3%
